High-throughput results from PubChem BioAssay.
RN4220 kill – growth inhibition of S. aureus RN4220, primary screen, OD600; 16 h; inhibition, % (no concentration beside the values); actives 0.33% (n = 330,000); AID 1259311, 2017;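 active = z-score of -3 or lower and OD600 up to 0.18 on both plates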;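 also: plate controls were untreated cells for no effect and reference antibiotic for full effect; stock transfer was 100 nL into about 80 µL; one replicate is shown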
Mtb hypoxia inh – PubChem AID 1159583; M. tuberculosis hypoxia-regulated fluorescent reporter, fluorescence; fluorescence inhibition, % (concentration not given with the values); actives 0.1% (n = 300,000);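 active = 35 to 45% if threefold the growth effect, above 45% if 1.5-fold the growth effect; inactive = the rest, general growth blockers included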;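 also: wells of about 50 µL received 100 nL stock; 0% = vehicle wells and 100% = reference inhibitor wells; whole bacteria with a GFP reporter of the hypoxia response; strong numbers were not always called active; many hits fall short of the cut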
Bead autofluor – counter-screen for toxin protease inhibitors: compound fluorescence; compound autofluorescence counterscreen, microsphere flow cytometry; active compounds read high; fluorescence intensity (test concentration not listed); actives 3.1% (n = 360,000); AID 624483;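 active = at least 3 SD above the mean of all compounds, about 16000 in these data; inconclusive = too few beads counted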;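 also: 100 nL of 1 mM stock went into each well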
BJeLR lethal – MLPCN primary cell-based screen for lethality selective to Ras in HRASV12 cells | BJeLR (HRASV12) viability, CellTiter-Glo ATP luminescence, 48 h; reference of the scale not given here | inhibition, % (concentration not given with the values) | actives 0.17% (n = 300,000);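 active = replicate mean above 50%; inconclusive = above 50% but judged a plate artefact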;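 also: 50 nL library stock added to about 25 µL; numbers are from one replicate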
PrP 5UTR inh – inhibition of PrP 5' UTR reporter expression; AID 488862, 2010; inhibition, % (no concentration beside the values); actives 0.35% (n = 340,000); cell-based PrP 5' UTR mRNA reporter, plate reader;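 active = every replicate at 50% or more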;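 also: 0 = median of the neutral control wells; tested in H4 reporter cells; numbers are from one replicate; inactives centre near -14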
ugtP null kill – growth inhibition of ugtP-null S. aureus, primary screen, RN4220 ugtP deletion, OD600; actives 0.54% (n = 330,000); growth inhibition, % (no concentration beside the values); 16 h; some inactives read as strong as hits;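 active = z-score under -3 and OD600 up to 0.15 on both plates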;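 also: plate controls were untreated wells for no effect and antibiotic for full effect; wells of about 80 µL received 100 nL stock; the first replicate is given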
Mtb hypoxia inh growth – also measured in Mtb hypoxia inh; calls as there; growth inhibition, %; measured here: M. tuberculosis growth (absorbance);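 0% = vehicle and 100% = reference antibiotic; read after six days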
Starred values were filed as active, the others as inactive; ? = inconclusive; . = no result given.

SMILES	RN4220 kill	Mtb hypoxia inh	Mtb hypoxia inh growth	Bead autofluor	BJeLR lethal	PrP 5UTR inh	ugtP null kill
CCOC(=O)C(CC(=O)c1ccccc1)CC(=O)c1ccccc1	1.9	-13.3	4.2	3459	-2.3	-43.1	-0.8
CC(=NNC(=O)Cc1csc(N2CCOCC2)n1)c1ccccc1	3.2	14.5	2.3	.	.	.	-1.8
COc1ccccc1C=NNC(=O)CNC(=O)c1ccccc1	2.4	14.9	7.6	.	.	.	3.3
C#CCCC/C(=C\C(=O)N(C)[C@H](C(=O)N(C)[C@H](C(=O)N(C)[C@H](C(=O)N(C)[C@H](C(N)=O)C(C)C)C(C)C)C(C)C)C(C)C)OC	6.3	-9.9	2.0	3496	.	-8.9	-5.5
O=C1O/C(=C\C(=O)N2CCOCC2)c2ccccc21	-0.2	.	.	4169	4.1	-21.1	-4.2
CCN(C(=O)COC(=O)c1c(C)noc1C)C1CCS(=O)(=O)C1 (configuration not stated)	6.3	4.9	1.2	2241	3.5	-24.3	0.7
Cc1ccc(F)c(C2C3C=CCC(c4ccccc4)C3C(=O)N2Cc2ccccc2)c1 (configuration not stated)	15.4	-0.1	-1.1	.	.	.	14.2
CCOC(=O)C1C2COc3cc(OC)ccc3C2N2C(=O)CN(CCc3c[nH]c4ccccc34)C(=O)[C@@]12C (some centres not stated)	9.0	11.2	9.6	.	.	.	4.2
CC(=O)Nc1ccc(C=NNC(=O)c2cc3ccccc3nc2C)cc1	5.2	3.6	-2.1	.	.	.	6.5
CN(C)C(=O)CSc1n[nH]c(-c2ccco2)n1	1.7	-4.6	-2.7	2631	-1.9	-17.8	9.6
CC(C)=CCCC(C)CN1CCC(N2CCC(C(=O)N3CCOCC3)CC2)CC1 (configuration not stated)	2.6	9.2	6.4	5780	4.2	-23.5	0.1
O=C(Nc1cccnc1)c1ccc(C(=O)Nc2cccnc2)cc1	-6.3	1.1	-1.5	3368	22.3	3.7	-9.3
CCCCC1(Cc2ccc([N+](=O)[O-])cc2)C(=O)N(c2ccccc2)N(c2ccccc2)C1=O	-7.3	.	.	4673	-5.2	-11.9	-11.9
Cc1ccc(NC2=CC(=NS(=O)(=O)c3cccs3)c3ccccc3C2=O)cc1C	10.4	-0.5	-0.4	.	.	.	2.6
C=CCNC(=O)COC(=O)c1ccc(Sc2nncn2C)c([N+](=O)[O-])c1	-1.7	8.1	8.4	3631	7.1	-21.2	4.7
CCc1ccc(C(C(=O)NC(C)(C)CC)N(Cc2ccco2)C(=O)Cn2nnc3ccccc32)cc1 (configuration not stated)	8.4	5.0	5.1	4790	0.8	4.4	10.7
Nc1c(Cl)cc(C2=NCCn3c2c2ccc(C(F)(F)F)cc2[n+]3[O-])cc1Cl	23.8	.	.	4134	-2.3	-10.4	21.3
CC1=NN(C(=O)Cn2nc([N+](=O)[O-])c(Br)c2C)C(O)(C(F)(F)F)C1 (configuration not stated)	-0.5	-7.6	-6.1	2039	-5.9	-21.5	3.3
CCC(=O)N1CCc2cc(Br)cc(S(=O)(=O)N(C)c3ccc(OC)cc3OC)c21	6.8	11.7	11.0	4446	1.8	-0.5	3.4
CCC(C)c1ccccc1NC(=O)CN(CC)CC(=O)Nc1ccc2c(c1)OCCO2 (configuration not stated)	5.3	4.4	5.8	4023	.	-27.4	2.3
O=c1[nH]c(CN(CCO)CCO)nc2c1C1(CCCCC1)Cc1ccccc1-2	0.2	.	.	4390	5.1	-9.8	5.5
COc1cccc2c(=O)c3ccccc3oc12	7.2	0.5	4.0	3450	-9.6	-12.6	10.4
Cc1ccc(S(=O)(=O)CCC(=O)OCc2nnc(-c3ccccc3)o2)cc1	6.2	18.3	8.0	3479	.	-18.9	-0.5
CC(C)(C)CN1C(=O)C(=O)NC[C@@H]1CCCCN	.	.	.	3466	-9.4	1.9	.
CCN(CC)C(=O)COc1ccc(/C(C)=N/Nc2ncc(Cl)cc2Cl)cc1	.	.	.	4566	7.4	-31.5	.
CCOc1ccc(Oc2c(C=NNC(N)=O)c(C)nn2-c2ccccc2)cc1	-1.5	-2.6	-3.8	.	.	.	10.8
CSc1ccccc1OCc1cc(C(=O)NCCC2CCCCO2)no1 (configuration not stated)	-1.4	6.4	6.4	5985	-4.6	-7.8	-6.0
CN(C(=O)c1cccc(NC(=O)Cc2ccc(NC(=O)C3CCCN(C(=O)C4CC4)C3)cc2)c1)C1CCC1 (configuration not stated)	3.5	1.4	7.0	3992	.	-9.8	2.0
CC1=C(C(=O)O)N2C(=O)[C@@H](NC(=O)CCCC(=O)O)[C@H]2SC1	4.1	.	.	5381	-6.3	-16.2	-2.4
CC(=O)c1c(N2CCN(C)CC2)nc(=S)n(-c2cc(C)ccc2C)c1C	.	.	.	6475	1.6	-35.4	.
Cc1cccc(C)c1NC(=O)COC(=O)c1ccccc1O	2.1	-7.7	3.6	5175	-1.3	3.1	2.8
O=C(c1ccncc1)N1CCN(C(=O)c2cccc3ccccc23)CC1	-20.1	0.3	-0.4	3400	9.8	-20.1	-5.7
C=CCn1c(SCC(=O)Nc2ncc(Cc3cc(Cl)ccc3Cl)s2)nnc1-c1ccncc1	-4.0	1.2	6.6	.	-11.1	-6.5	-2.2
CCc1cccc(C)c1NC(=O)COC(=O)CC1CCCC1	-3.9	-6.2	9.3	5992	-0.6	7.9	-3.0
COc1ccccc1S(=O)(=O)Nc1cccc(S(=O)(=O)N2CCCC2)c1	5.2	0.3	2.0	2931	.	-11.5	4.7
Cc1ccc(SCCOCCN2CCc3ccccc3C2)cc1	6.2	-1.9	0.9	1989	1.5	-13.2	11.8
C=C(C)Cn1c(Sc2nc3ccccc3[nH]2)nc2c1c(=O)[nH]c(=O)n2C	-0.2	8.2	5.3	4373	-5.6	-4.1	4.6
CC(C)(C)NC(=O)C(c1ccccc1)N(C(=O)CNC(=O)c1cccs1)c1cccnc1 (configuration not stated)	4.1	0.8	2.1	3701	-1.0	-21.6	9.2
Cc1cccc(OCc2occc2C(=O)Nc2cccc(-n3cnnn3)c2)c1	-1.3	10.6	1.5	6232	11.8	-21.7	0.7
CCC(=O)Nc1ccc(NC(=O)CN2CCCC(C)C2)c(Cl)c1 (configuration not stated)	-5.2	6.0	16.4	3187	10.3	-6.9	-5.2
CCc1cccc2c(C(=O)CCl)c[nH]c12	4.8	12.7	9.2	2428	.	-12.0	10.0
Cc1sc2nc(CC(=O)N3CCCC3)[nH]c(=O)c2c1C	3.2	-10.2	4.2	4634	4.4	-59.8	-7.2
COc1ccc(C(=O)N2CCN=C2SC)cc1OC	0.5	.	.	3718	3.6	-16.1	0.2
CC(C)N(C)C(=O)CCc1nnc(CCc2c[nH]c3ccccc23)o1	2.2	-6.3	2.8	2131	-5.7	-24.4	4.5
COc1ccc(C2CC(c3ccccc3)=NN2C(=O)CN2N=NC3C(=O)N(c4cccc(F)c4)C(=O)C32)cc1 (configuration not stated)	5.6	12.0	1.9	2378	8.9	-15.5	-0.1
CC1C2C(C)N(C)C(=O)N(C)C2N(C)C(=O)N1C (configuration not stated)	7.2	0.9	-2.8	.	-1.4	-9.7	17.6
Cc1ccc(OCC(=O)NN=Cc2cccnc2)cc1C	-0.1	0.2	8.1	.	.	.	3.2
Cc1cc(C)n2nc(SCC(=O)N(C)C3CCCCC3)nc2n1	0.7	0.1	11.3	?	0.3	-8.6	3.0
CC1CN(S(=O)(=O)c2ccc(C(=O)N3c4ccccc4CC3C)cc2)CC(C)O1 (configuration not stated)	3.9	-5.0	1.6	3579	.	1.9	2.4
Cn1cccc1CN1CCN(C(=O)COc2ccccc2)CC1	-10.8	3.4	7.5	2599	2.1	-27.3	-2.0
O=C1C(c2c(O)[nH]c3ccccc23)=Nc2ccccc21	1.6	-7.5	-8.9	5785	11.0	-78.2	-4.7
NC(=O)CN1C(=O)NC2(CCCc3ccccc32)C1=O (configuration not stated)	0.9	2.1	2.9	5694	7.6	-11.4	4.7
CCOc1ccc(NC(=O)CCC(=O)NNC(=O)COc2ccc(C)cc2)cc1	10.4	12.6	4.0	4663	-5.5	-20.5	-2.4
COc1ccc(C2(C(=O)Nc3ccccc3)CCOCC2)cc1	4.5	7.7	5.8	2420	17.4	-16.5	7.3
O=C(/C=C/c1ccco1)Nc1cccc(S(=O)(=O)N2CCOCC2)c1	-2.1	11.1	0.1	2429	-4.8	-11.9	-24.9
Nn1c(SCC(=O)Nc2ccc(OC(F)F)cc2)nnc1-c1ccco1	4.2	-2.4	-6.9	4548	-12.2	13.9	10.1
O=C(COc1ccc(Cl)cc1)N/N=C/CCc1ccccc1	.	.	.	9751	-0.2	-29.6	.
COc1cccc(-c2nc3ccccc3c(=O)o2)c1	11.7	11.7	17.2	?	-8.3	-15.2	10.8
Cc1cc(Cl)ccc1OCC(=O)NNC(=O)C1CCCO1 (configuration not stated)	2.9	8.0	2.1	3652	0.3	1.3	4.2
COCCCNC(=O)c1cccc(NC(=O)c2ccccc2)c1	4.1	19.2	-2.0	2113	-9.7	-16.5	6.9

Three compounds out of the list, sorted by heavy-atom count, lowest first.
SMILES	RN4220 kill	Mtb hypoxia inh	Mtb hypoxia inh growth	Bead autofluor	BJeLR lethal	PrP 5UTR inh	ugtP null kill
O=C(COc1ccc(Cl)cc1)N/N=C/CCc1ccccc1	.	.	.	9751	-0.2	-29.6	.
O=C(/C=C/c1ccco1)Nc1cccc(S(=O)(=O)N2CCOCC2)c1	-2.1	11.1	0.1	2429	-4.8	-11.9	-24.9
CCOc1ccc(NC(=O)CCC(=O)NNC(=O)COc2ccc(C)cc2)cc1	10.4	12.6	4.0	4663	-5.5	-20.5	-2.4

Part of the list above, showing only Mtb hypoxia inh:
| SMILES | Mtb hypoxia inh |
| --- | --- |
| Cc1cccc(C)c1NC(=O)COC(=O)c1ccccc1O | -7.7 |
| O=C(c1ccncc1)N1CCN(C(=O)c2cccc3ccccc23)CC1 | 0.3 |
| C=CCn1c(SCC(=O)Nc2ncc(Cc3cc(Cl)ccc3Cl)s2)nnc1-c1ccncc1 | 1.2 |

Remaining list, next part:
SMILES	RN4220 kill	Mtb hypoxia inh	Mtb hypoxia inh growth	Bead autofluor	BJeLR lethal	PrP 5UTR inh	ugtP null kill
O=C(N/N=C/c1ccoc1)c1cccc(OC(F)(F)C(F)F)c1	.	.	.	4185	-4.0	-5.3	.
O=C(O)c1cccc2c1C(=O)c1ccc(-c3ccc(F)cc3F)cc1S2(=O)=O	-6.6	6.1	3.8	2824	.	-26.4	-0.1
Oc1ccccc1N1CCN(c2ncnc3sc(-c4ccccc4)cc23)CC1	6.8	11.8	4.3	5206	2.2	-3.0	1.0
Cc1cccc(NC(=O)Nc2cccnc2)c1C	4.7	9.1	1.4	5194	.	-16.4	-9.7
Cc1c(NC(=O)COc2c(F)c(F)c(F)c(F)c2F)c(=O)n(-c2ccccc2)n1C	-6.9	-0.4	7.6	3742	4.4	-23.5	-1.5
Cc1ccnn1-c1ccc(C(=O)NCc2ccccc2CN2CCOCC2)cc1	-0.1	14.6	11.2	3422	.	-54.5	5.4
Cc1ccc(CN2CCN(Cc3nc(C(C)C)cs3)CC2CCO)cc1 (configuration not stated)	0.0	10.2	4.0	4997	5.4	-1.9	-6.4
C#CCOCCOCCOCCNc1nc(N2CCN(C(=O)C(CCCCN)n3cc(CCCC)nn3)CC2)nc(N2CCN(C(=O)C(CCCCN)n3cc(CCC(=O)O)nn3)CC2)n1 (configuration not stated)	6.3	2.3	3.1	.	.	.	-6.9
CC12CCC(C(=O)Nc3ccccc3)(C/C1=N\O)C2(C)C (configuration not stated)	.	.	.	16758*	0.9	-0.8	.
O=[N+]([O-])c1ccc(NC2CCCC2)cc1	6.4	6.9	11.5	2508	0.3	-28.4	-5.8
CCN1CC=C2C(C1)C(c1ccc(Cl)s1)C(C#N)=C(N)C2(C#N)C#N (configuration not stated)	2.0	10.1	13.4	10215	0.9	-47.7	-0.9
CC(C)(C)C1CCC(=O)N(CCSc2ccccc2)CC1 (configuration not stated)	5.1	12.9	16.0	2908	5.1	-59.7	-0.5
Cc1cc(NC(=O)COC(=O)COc2ccc3c4c(c(=O)oc3c2)CCC4)no1	8.1	7.5	0.0	4479	2.8	4.5	9.9
CC(C)(C)c1ccc(C(=S)N2CCN(c3ccccc3)CC2)cc1	-1.6	-2.2	0.5	4401	5.9	-14.1	7.2
NC(=O)C1CCN(CCS(=O)(=O)c2ccc(Cl)cc2)CC1	5.4	8.2	4.5	4531	0.2	-27.4	12.9
